Bioassay records (PubChem)
UCH37 inh = blocks the human deubiquitinase UCH37; Q9Y5K5; purified proteasome/UCH37, Ub-AMC cleavage fluorescence; inhibition, % (test concentration not listed); actives 0.33% (n = 330,000);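 active means mean of two replicates above 20%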;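 further: 0% = compound-free wells with enzyme and 100% = wells lacking proteasome; stock transfer was 100 nL into about 20 µL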
Target sequence (Q9Y5K5 whole entry, looked up): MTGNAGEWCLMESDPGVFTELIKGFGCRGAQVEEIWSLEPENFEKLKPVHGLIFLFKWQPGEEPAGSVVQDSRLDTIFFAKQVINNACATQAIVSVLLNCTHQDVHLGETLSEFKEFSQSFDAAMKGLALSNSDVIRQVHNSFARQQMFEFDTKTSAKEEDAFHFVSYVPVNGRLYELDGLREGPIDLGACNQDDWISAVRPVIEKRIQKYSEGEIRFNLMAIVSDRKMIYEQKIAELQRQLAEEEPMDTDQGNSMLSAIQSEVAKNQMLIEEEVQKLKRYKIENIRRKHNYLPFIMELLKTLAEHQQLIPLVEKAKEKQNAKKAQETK
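Assay system: Proteasome-bound UCH37. Buffer or medium: pH 7.4 Tris-HCl (50 mM) with ovalbumin, ATP-MgCl2, DTT. Incubation: 30 min preincubation with enzyme, 25 min cleavage at room temperature. Measured by: fluorescence, ex 355 nm, em 460 nm. Read-out basis: percent inhibition. Control set: wells without proteasome as full block, compound-free enzyme plus substrate as uninhibited.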
HNF4A DNA FP = change in binding of human HNF4 alpha to DNA; P41235; HNF4a-FITC DNA binding, fluorescence polarization, 1 h; activity change, % at 10 µM; actives 0.3% (n = 360,000); AID 1224865; in the data active means activity change above about 30%, passing the limit was not always enough;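 further: controls were the assay level and a saturating level of protein; the project sought stronger binding though the title names inhibitors; some compounds called inactive have numbers as strong as hits; positive values seem to mean higher polarization but the record does not say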
rRNA inh HTS = inhibits bacterial ribosomal RNA function over humanized ribosomes. AID 720706. actives 1.6% (n = 350,000). E. coli WT GFP vs humanized-ribosome RFP mutants, fluorescence, 24 h; stronger effect = lower value; DMSO median 0, no signal -100. GFP signal change (wild-type ribosome), % (concentration not given with the values);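 active means significant combined selectivity score with lowered wild-type GFP, culture density cut under 30%, mutant RFP and density less affected; inactive means any of these conditions unmet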; further: one replicate is shown; some compounds called inactive have numbers as strong as hits
Beta2AR agonist = agonists of human beta-2 adrenergic receptor inducing internalization | P07550 | Am2.2-beta2AR cells, FAP receptor internalization, flow cytometry; reference of the scale not given here | response, % (no concentration beside the values) | actives 0.43% (n = 340,000) | AID 504454;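 active means response above a set limit, near 3 SD of response in nonfluorescent compounds, cut at about 42% in these data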;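 further: stock transfer was 100 nL into about 11 µL; a reference agonist was the positive control; negative values mostly stem from fluorescent compounds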
Ecoli growth = blocks Escherichia coli growth. OD600, 23 h; stronger effect = lower value. OD600 absorbance (no concentration beside the values). actives 0.21% (n = 330,000);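 active means OD600 absorbance below the run mean of sample wells minus 3.6 SD, in any replicate, cut at about 0.56 in these data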;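 further: stock transfer was 300 nL into about 60 µL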
ALR H2O2 inh = human ALR oxidase inhibition via reduced H2O2; actives 3.8% (n = 290,000); purified ALR, DTT oxidation, H2O2 HRP-luminol luminescence; P55789; inhibition, % (no concentration beside the values); AID 485317;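 active means mean and each replicate at 75% or more; inconclusive means only one of the two met; inactive means neither met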;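 further: stock transfer was 7.5 nL into about 7.5 µL; 0% = neutral wells and 100% = wells with inactivated enzyme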
Target sequence (P55789 whole entry, looked up): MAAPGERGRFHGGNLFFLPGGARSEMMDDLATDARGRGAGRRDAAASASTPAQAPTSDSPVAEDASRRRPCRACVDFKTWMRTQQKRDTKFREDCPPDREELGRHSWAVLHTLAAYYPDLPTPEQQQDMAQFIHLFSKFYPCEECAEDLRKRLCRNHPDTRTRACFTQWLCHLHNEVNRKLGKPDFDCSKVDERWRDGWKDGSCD
FGF22 binding = binders of recombinant human FGF22 by thermal shift; SYPRO orange fluorescence; percent of sucrose octasulfate shift, DMSO zero; calls only at 9.99 µM; Q9HCT0; actives 1.5% (n = 340,000);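 active means melting point raised past a set limit in the mean and every replicate; inconclusive means no clear call; three in four hits are not shown here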
Target sequence (Q9HCT0 whole entry, looked up): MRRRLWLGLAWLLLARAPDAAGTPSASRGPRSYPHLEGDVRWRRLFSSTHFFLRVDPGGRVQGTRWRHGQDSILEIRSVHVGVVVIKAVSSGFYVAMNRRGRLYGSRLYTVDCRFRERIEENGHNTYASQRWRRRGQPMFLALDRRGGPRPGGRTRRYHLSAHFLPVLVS
rRNA inh HTS OD600 = second read-out of rRNA inh HTS, no call of its own (marks repeat the call); OD600 change, %; measured here: OD600 growth;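 optical density of the mix in the first replicate; 0 = DMSO median and -100 = no signal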
rRNA inh HTS RFP = further read-out of rRNA inh HTS, marked with its call; RFP signal change, %; measured here: RFP humanized mutant strains;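 first replicate; 0 = DMSO median and -100 = no signal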
* = called active by the depositor; i = inactive; ? = inconclusive; . = not tested or not shown; & = joins results of further samples. This is a subset; the hit share may differ from the screen's.

No.	structure	UCH37 inh	HNF4A DNA FP	rRNA inh HTS	rRNA inh HTS OD600	rRNA inh HTS RFP	Beta2AR agonist	Ecoli growth	ALR H2O2 inh	FGF22 binding
1	O=C(Nc1cccc(S(=O)(=O)N2CCCC2)c1)c1cncc(Br)c1	.	-5.8	-14	-6	-1.7	-4	.	0	i
2	CC(=O)c1ccc(NC(=O)CCc2c(C)nc3ncnn3c2C)cc1	1.8	2.5	.	.	.	1	0.65	.	.
3	Cc1cc2ncc(-c3cccs3)nc2cc1C	-88	0.5	12	9	-4.0	-5	0.62	-1	i
4	O=C(O)C1C2C=CC(C2)C1C(=O)Nc1cccc(C(F)(F)F)c1 (stereo not drawn)	-1.0	1.5	5	7	0.5	10	0.64	6	i
5	CSc1ccc(C2=CC(=O)C[C@H](c3ccc4c(c3)OCO4)C2)cc1	4.0	2.2	7	1	-6.1	-3	0.76	-7	i
6	CC1(c2cccc(Br)c2)NC(=O)N(CC(=O)Nc2cccnc2Cl)C1=O (stereo not drawn)	3.3	4.7	2	-8	-1.1	1	0.72	-1	i
7	Cc1ccc(C(=O)N(CC(C)C)c2nc3ccccc3s2)o1	3.2	0.2	-12	-19	-17	15	0.67	4	i
8	COc1ccccc1C(=O)COC(=O)c1cc(S(=O)(=O)N2CCCCC2)ccc1N1CCOCC1	1.6	2.0	0	8	-1.8	3	0.7	.	i
9	CC(=O)CSc1nsc(SCC(C)=O)c1C#N	7.1	4.6	.	.	.	12	0.72	?	.
10	CCOC(=O)/C(C#N)=C\c1ccc(OCC(=O)Nc2ccc(C)cc2C)c(OC)c1	-35	-1.9	.	.	.	10	0.74	-3	.
11	CCN(CC)C(=O)Cn1c(=O)c2ccccc2n2c(=S)sc(-c3cccc(C)c3)c12	10	16	.	.	.	-92	0.78	-3	i
12	CC(=O)c1ccc(Nc2nc(C(N)Cc3ccc(Cl)cc3)cs2)cc1 (stereo not drawn)	.	2.3	-4	-65	26	.	.	.	i
13	COCCn1c(=O)[nH]c2cc(C(=O)NCCN3CCN(c4cccc(Cl)c4)CC3)ccc2c1=O	-4.2	0.0	.	.	.	-8	0.7	-5	.
14	CCCNC(=S)N(Cc1cc2cc(C)ccc2n2nnnc12)CC(C)(C)CN(C)C	4.2	2.8	2	10	3.7	-4	0.65	-8	i
15	Cc1cc(C)cc(OCC(=O)NC2=NCCS2)c1	1.2	-1.3	.	.	.	0	0.71	.	.
16	C[C@H](CO)N1C[C@H](C)[C@@H](CN(C)C)Oc2c(NS(=O)(=O)c3cn(C)cn3)cccc2C1=O	2.4	1.8	4&12	9&26	-0.5&-1.5	2	0.69	0	i
17	CCCN(CC(=O)Nc1ccccc1C)C(=O)C1CCN(S(=O)(=O)c2ccc3c(c2)OCCO3)CC1	0.0	-2.9	2	3	2.7	-1	0.62	.	i
18	CCNC(=O)c1nc[nH]c1C(=O)NCC	0.6	-2.4	.	.	.	1	0.73	-5	.
19	O=C(O)C1CCCC[C@H]1C(=O)Nc1ncc([N+](=O)[O-])s1 (stereo partly drawn)	3.5	1.5	2	12	4.4	19	.	-8	i
20	CCOc1ccccc1Nc1nnc(SC(C)C(=O)Nc2nc(-c3ccccc3)cs2)s1 (stereo not drawn)	4.7	-0.4	.	.	.	-11	0.77	33	.
21	CCn1c(SCC(=O)Nc2cc(NC(C)=O)ccc2OC)nnc1-c1ccccn1	0.9	1.4	.	.	.	2	0.68	-9	.
22	Cc1ccc(C(=O)N(C)c2nnc(-c3ccncc3)s2)cc1	1.5	-3.8	10	7	1.0	1	0.7	-2	i
23	Clc1c(CSc2nc3ccccc3o2)nc2ccccn12	0.7	0.3	.	.	.	-6	0.65	98*	.
24	O=C(Nc1cccc(Cl)c1N1CCCCC1)c1ccc2c(c1)OCCO2	2.0	1.3	.	.	.	4	0.71	0	.
25	N#CC(C(=O)C1CCCCC1)c1nc2ccccc2[nH]1 (stereo not drawn)	2.7	1.0	.	.	.	-22	0.68	3	.
26	CCC1(c2ccc(F)cc2)NC(=O)N(CC(=O)N2CC(=O)Nc3ccccc32)C1=O (stereo not drawn)	-1.4	1.8	-5	-2	-0.4	0	0.72	-9	i
27	Nn1c(SCC(=O)Nc2cccc(F)c2)nnc1C1CCCCC1	2.9	2.6	.	.	.	-8	0.66	-1	.
28	CCOC(=O)c1ccc(NC(=O)c2cccc(S(=O)(=O)N3CCN(C(C)=O)CC3)c2)cc1	6.0	0.0	2	-1	-0.6	-1	0.66	0	i
29	Cc1c(C(=O)NCc2ccc(Cl)c(Cl)c2)sc(=O)n1Cc1ccc(S(C)(=O)=O)cc1	.	5.3	-12	-15	-3.2	.	.	.	i
30	COc1ccccc1-n1c(SC)nc(O)cc1=O	5.0	-3.0	-4	0	-4.4	3	0.72	-11	i
31	O=c1c2cc(-c3ccccc3)sc2nc2n1N=C(c1ccccc1)CS2	-1.2	-3.1	11	2	0.6	-17	0.68	-5	i
32	O=C(CSCc1ccc(F)cc1)NCc1ccc2c(c1)OCO2	-1.4	-3.1	-14	-12	-2.5	5	0.67	6	i
33	COc1cc(Br)cc2cc(C(=O)N3CCN(c4ccccn4)CC3)c(=O)oc12	3.2	2.5	.	.	.	-3	0.72	-3	.
34	NC(=O)c1cc2ccccc2o/c1=N\NC(=O)c1ccccc1O	.	3.9	12	2	1.9	-9	.	-16	i
35	CCc1cc2c(=O)c(-c3nc4ccccc4n3C)coc2c(CN2CCCC(C)C2)c1O (stereo not drawn)	-57	1.7	2	7	-0.5	-6	0.66	-3	i
36	Cc1cc(C)c2nc(NC(=O)c3ccc([N+](=O)[O-])o3)sc2c1	6.2	2.5	18	18	0.6	10	0.61	-5	i
37	O=C(C1CCN(Cc2ccc(F)cc2)CC1)N(CCc1ccccc1)Cc1ccccc1	1.6	-1.2	.	.	.	-6	0.69	-18	.
38	CC(OC(=O)C1CCCC1)C(=O)Nc1ncc(Cl)cc1Cl (stereo not drawn)	-2.9	-0.2	8	6	-1.2	-5	0.66	-27	i
39	CCOC(=O)Cc1ccc(Nc2nc3cc(-c4ccccc4C)sc3c(=O)n2C)cc1	.	5.0	-6	-1	-1.4	.	.	.	i
40	CN(C)C=Nc1ccc([N+](=O)[O-])c2ccccc12	.	2.9	-34	-45	0.7	.	.	.	i
41	Cn1cc2c(=O)n(/N=C/c3ccccc3)cnc2n1	.	0.0	18	16	1.4	-5	.	-23	i
42	O=C(Nc1ccccn1)c1cccc(S(=O)(=O)N2CCCCC2)c1	0.6	3.3	.	.	.	-1	0.76	.	.
43	O=C(C1CCCCC1)N1CCN=C1SCc1cccc([N+](=O)[O-])c1	3.3	-0.4	5	6	3.1	-14	0.69	100*	i
44	COC(=O)COc1ccc(C(=O)Cn2c(NCCCO)nc3ccccc32)cc1	3.3	-1.0	9	4	0.1	1	0.7	-10	i
45	COc1cccc(CNc2nc(NCC3CC3)nc3ccsc23)c1	.	0.9	-18	-58	-7.0	.	.	.	i
46	COc1cccc(CN(C)C(=O)c2ccc(NS(=O)(=O)c3ccc(F)cc3)cc2)c1OC	3.6	0.4	0	-6	8.6	4	0.66	.	i
47	Clc1ccc2nc(CN3CCCCCC3)cn2c1	1.7	2.1	.	.	.	-6	0.64	-3	.
48	CC1=C(C(=O)Nc2ccccc2)C(c2ccc(C)cc2)N=C(Nc2nc3ccccc3o2)N1 (stereo not drawn)	-140	-0.7	.	.	.	5	0.76	-2	.
49	c1ccc(C(c2c[nH]c3ccccc23)c2c[nH]c3ccccc23)nc1	4.7	4.9	.	.	.	12	0.76	.	.
50	CC(Nc1nc(-c2ccncc2)nc2ccccc12)c1ccccc1 (stereo not drawn)	-2.5	3.5	-59	-79	-13	23	0.68	.	i
51	CC1(C)N=C(SCC(=O)Nc2ccc(Cl)cc2)C(c2ccc(Cl)cc2)=N1	2.3	1.4	.	.	.	2	0.67	.	.
52	O=C(N/N=C/c1ccc(Cl)c([N+](=O)[O-])c1)C1CC1	.	1.2	.	.	.	-6	.	-23	.
53	CCOc1ccc(C(=O)NCC(=O)OCCN2C(=O)c3ccccc3C2=O)cc1OCC	2.3	-2.2	-2	8	-3.7	-2	0.71	-5	i
54	CC(=O)CC(C)(C)Nc1nc2cc([N+](=O)[O-])ccc2o1	7.6	1.1	0	2	-1.7	12	0.68	-20	i
55	CN(C)Cc1csc(NC(=O)Nc2cccc(C(F)(F)F)c2)n1	.	2.7	4	4	-1.0	.	.	.	i
56	CC(C)(C)NC(=O)C[C@H]1C[C@H](C(=O)N2CCCCC2)[C@@]2(CCc3ccccc3)c3[nH]c4cc(-c5ccco5)ccc4c3CCN2C1=O	-15	20	18	18	34	11	0.7	.	i
57	Fc1ccc(-c2nnc(-c3ccc(F)cc3)o2)cc1	0.0	-5.6	17	13	5.1	-2	0.73	3	i
58	Cc1nc(NS(=O)(=O)c2ccc(Cl)s2)c2c3c(sc2n1)CCCC3	.	-4.6	-9	-24	3.0	3	.	2	i
59	Cc1cccc(-n2ncc3c2CCCC3NC(=O)Cn2cccn2)c1C (stereo not drawn)	4.4	-1.1	5	4	0.9	1	0.69	0	i
60	COc1cccc(C2(CSc3nnc(-c4cc(OC)c(OC)c(OC)c4)o3)OCCO2)c1	-1.9	-0.7	.	.	.	6	0.76	-5	.

The listing continues:
No.	structure	UCH37 inh	HNF4A DNA FP	rRNA inh HTS	rRNA inh HTS OD600	rRNA inh HTS RFP	Beta2AR agonist	Ecoli growth	ALR H2O2 inh	FGF22 binding
61	C(=C\c1ccc2ccccc2n1)/c1ccccc1	-4.4	1.8	-13	6	-1.6	-1	0.63	0	i
62	Cc1cc(C)c(S(=O)(=O)N2CCN(C(=O)N3CCCCC3)CC2)c(C)c1	4.3	-1.4	-29	-30	-1.7	5	0.62	-19	i
63	O=C1OCC(CO)(CO)N=C1NNc1cc(Cl)ccc1Cl	4.8	-1.5	.	.	.	3	0.69	99*	.
64	COc1cccc(NC(=S)N(CCN(C)C)C(C)c2ccncc2)c1 (stereo not drawn)	1.8	6.0	7	1	-6.9	-2	0.65	-5	i
65	CCOC(=O)N1CCN(c2ncnc3scc(-c4ccc(Cl)cc4)c23)CC1	4.3	3.2	.	.	.	1	0.69	0	.
66	CCN1CCN(S(=O)(=O)c2ccc3c(c2)OCCO3)CC1	2.1	2.3	.	.	.	8	0.69	-23	.
67	O=C(O)c1ccc2c(c1)C(=O)N(Cc1ccc3c(c1)OCO3)C2=O	0.8	8.7	.	.	.	0	0.67	87*	.
68	Cc1cc(C)cc(Cn2c(C)c(C(=O)N(C)Cc3ccc(F)cc3)sc2=O)c1	.	1.3	-16	-9	-7.9	.	.	.	i
69	CSc1cccc(NC(=O)C(=O)NCc2ccccc2)c1	-1.5	2.5	0	3	-0.8	9	0.69	-1	i
70	CCn1c(SCC(=O)c2ccc(C)cc2)nnc1-c1ccoc1C	1.2	1.2	.	.	.	4	0.7	67	.
71	O=C(/C=C/c1ccco1)Nc1ccc2c(c1)OCCO2	13	0.4	9	21	2.7	7	0.72	54	i
72	Cc1oc(-c2ccccc2)nc1C(=O)OCC(=O)NCc1ccc(Cl)cc1	-1.3	1.3	4	6	4.8	4	0.68	-1	i
73	CC(C)NC(=O)Cn1nnc(-c2cccc(NC(=O)c3ccccc3F)c2)n1	-0.1	-2.9	.	.	.	-2	0.7	-2	.
